Screening data: PubChem, National Center for Advancing Translational Sciences (NCATS)
Resorufin autofl = compound fluoresces in the resorufin spectral region. Compound fluorescence, resorufin region 547/598 nm, buffer; stronger effect = higher value. 59,000 tested, 0.04% active. max dye-equivalent concentration, M. AID 588; active = above 10 nM dye equivalent; inconclusive = 1 to 10 nM; inactive = 1 nM or less; a few of its hits are not listed in these tables; further: highest value over a series up to 38 µM
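Tris 100 mM pH 8.0; compound added, 15 min RT; CCD imager read, ex 547 nm/em 598 nm; signal normalized to resorufin standard curve (six concentrations per plate) as dye-equivalent concentration.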
A488 fluor = A488 region autofluorescence; 59,000 tested, 0.1% active; AID 591; max dye equivalency, M; compound autofluorescence, A488 spectral region, dye equivalency; stronger effect = higher value; active = above 10 nM dye equivalent; inconclusive = 1 to 10 nM; inactive = 1 nM or less; about half of its hits are not listed in these tables;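 further: highest value over a series up to 38 µM; compound alone in buffer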
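Autofluorescence read at ex 480/em 540 nm after 15 min RT in 100 mM Tris pH 8.0; compound signal normalized to A488 standard series on each plate, reported as dye-equivalent concentration at each test concentration.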
TSHR ag = agonists of human thyroid stimulating hormone receptor; HEK293-CNG-TSHR cells (CNG channel as cAMP sensor), membrane potential dye, cAMP; Potency, µM (highest dose often 57.1 µM), without a hit: at the highest dose activation, usual class: activators; 73,000 tested, 0.48% active; active = well fitted activation curve of enough size with the parental cells flat; inconclusive = any curve in the parental cells; inactive = parental cells flat and receptor cells flat or falling; further: potency means the concentration at half of the fitted maximal effect; % of control where 0% means no effect; weak receptor curves with flat parental cells got no call and are not listed
Target sequence (P16473 whole entry, looked up): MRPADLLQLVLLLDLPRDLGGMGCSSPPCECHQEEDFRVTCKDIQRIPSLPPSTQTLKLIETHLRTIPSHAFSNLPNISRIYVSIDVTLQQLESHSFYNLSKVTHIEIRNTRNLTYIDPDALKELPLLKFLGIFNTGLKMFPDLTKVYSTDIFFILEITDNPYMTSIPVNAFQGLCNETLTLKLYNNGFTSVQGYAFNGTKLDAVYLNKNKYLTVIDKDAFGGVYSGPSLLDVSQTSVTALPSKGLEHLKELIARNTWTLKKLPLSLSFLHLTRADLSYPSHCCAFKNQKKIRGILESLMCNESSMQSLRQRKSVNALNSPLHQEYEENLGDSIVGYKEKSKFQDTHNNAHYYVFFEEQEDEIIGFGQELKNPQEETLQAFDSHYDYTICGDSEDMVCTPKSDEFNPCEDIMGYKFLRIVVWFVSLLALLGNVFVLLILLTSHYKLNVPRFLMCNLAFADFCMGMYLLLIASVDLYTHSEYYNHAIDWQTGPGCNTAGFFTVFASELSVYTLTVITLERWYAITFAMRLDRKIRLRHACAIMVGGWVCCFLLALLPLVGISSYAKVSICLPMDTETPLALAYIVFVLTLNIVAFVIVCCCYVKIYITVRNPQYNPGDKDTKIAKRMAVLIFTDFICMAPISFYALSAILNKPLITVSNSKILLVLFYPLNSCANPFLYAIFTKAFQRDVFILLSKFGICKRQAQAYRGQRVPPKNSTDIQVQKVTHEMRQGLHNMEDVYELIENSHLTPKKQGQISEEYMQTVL
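HEK 293 cells stably expressing TSHR and a modified CNG channel, with CNG-only parental cells as counterscreen, were preloaded 60 min at room temperature with membrane potential dye containing 100 uM RO 20-1724. Compound exposure was 30 min, and depolarization was read as fluorescence at 590 nm.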
A647 fluor = compound autofluorescence in A647 spectral region; Compound fluorescence, A647 channel (570/671 nm), Tris buffer; max dye-equivalent concentration, M; 59,000 tested, under 10 active; AID 592; active means above 1 µM dye equivalent; inconclusive means 0.1 to 1 µM; inactive means 0.1 µM or less;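 further: values scaled relative to a standard on each plate; highest value over a series up to 38 µM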
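Tris 100 mM pH 8.0; cpd + A647 stds pin-transferred; 15 min RT; CCD imager, ex 570/em 671. Output = A647-equivalent conc. per cpd conc.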
AID923 = qHTS Assay for Allosteric/Competitive Inhibitors of Caspase-1: Spectroscopic Profiling in AFC Spectral Region | compound fluorescence, AFC spectral region (405/520 nm); almost no hit is shown here | Potency, µM (titrated, usually from 57.5 µM), inactives show at the highest dose fluorescence increase, hits mostly activators | 75,000 tested, 1.1% active | AID 923, 2007; active means well fitted activation curve with a large enough effect; inconclusive means small, poorly fitted or top-dose-only effect;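 further: potency means the concentration at half of the fitted maximal effect; 0% is about no effect; scaled to a free AFC standard on each plate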
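Compound autofluorescence profiled at 405 nm ex/520 nm em during kinetic caspase 1 run (50 nM enzyme, 5 uM Ac-WEHD-AFC, HEPES pH 7.5, 10 mM DTT). Titration up to 57 uM; baseline from regression intercept, normalized to AFC standard curve.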
Starred values were filed as active, the others as inactive; i = inactive; ? = inconclusive; nt = not tested or not shown; [ ] = remark or other dose.

Order of values: A488 fluor	Resorufin autofl	A647 fluor	AID923	TSHR ag
CC(=O)S[C@@H]1CC2=CC(=O)CC[C@@]2(C)[C@H]2CC[C@]3(C)[C@H](CC[C@@]34CCC(=O)O4)[C@H]12
    i	i	1.5e-08	-1.6%	2%
Cc1ccc(Nc2cc(C)nn2-c2nc(C)cc(C)n2)cc1
    i	i	1e-09	-1.9%	7%
O=C1CCCc2c1[nH]c1ccc(CN3CCCCC3)cc21
    nt	nt	nt	4.8%	7%
CCCCc1ccc(NC(=O)c2c(C)noc2C)cc1
    i	i	3.1e-08	0.4%	9%
CC1=C(C(=O)OCc2ccccc2)C(c2ccc(Cl)cc2)NC(=O)N1CCCCCC(=O)O (stereo not given)
    nt	nt	nt	-1.2%	?
CC(C(=O)Nc1ncc2c(n1)CC(C)(C)CC2=O)N1C(=O)c2ccccc2C1=O (stereo not given)
    i	i	4.5e-08	-1.4%	nt
CC(=O)c1cccc(NC(=O)c2nccnc2C(=O)O)c1
    i	i	1.3e-08	-0.3%	-3%
Cc1ccc(S(=O)(=O)Cn2nnnc2C(CC(C)C)N2CCN(c3ccc(F)cc3)CC2)cc1 (stereo not given)
    i	i	2.9e-09	-1.2%	2%
Cc1ccc2nc(CSc3nnc(Cc4cccs4)n3C3CCCCC3)cc(=O)n2c1
    i	i	3.3e-08	0.8%	1%[11.4 µM]
CC1(C)CC(=O)C([C@H]2C3=C(CC(C)(C)CC3=O)Oc3ccccc32)C(=O)C1
    nt	nt	nt	-1.5%	10%
O=C(c1ccc(Cl)c(F)c1F)N1CCCC1
    i	i	2.7e-08	0.3%	-10%
CC(C)CCn1c(NCCN(C)C)nc2c1c(=O)[nH]c(=O)n2C
    i	i	2.6e-09	-0.1%	7%
COc1ccccc1CNC(=O)c1cc2sccc2n1C
    i	i	1e-09	-0.7%	nt
COC(=O)COc1ccc(S(=O)(=O)N2CCOCC2)cc1C
    i	i	6.2e-09	-4.5%	-3%
O=C1C2CC=CCC2C(=O)N1c1ccc(OCC(O)Cn2nnc3ccccc32)cc1 (stereo not given)
    i	i	3.8e-09	-0.4%	16%
O=C(OCCOCCO)c1ccccc1Nc1cccc(C(F)(F)F)c1
    i	i	2.8e-09	-0.3%[25.7 µM]	2%[25.6 µM]
COc1ccc2[nH]c(=O)c(CN(CCN(C)C)C(=O)NCc3ccccc3)cc2c1
    i	i	9.8e-09	0.0%	2%
O=C(O)CCSc1nc2ccc(Br)cc2[nH]1
    i	i	2e-08	-1.3%	-1%
O=C(NCc1ccco1)c1ccc2c(c1)C(=O)N(Cc1ccccc1)C2=O
    i	i	7.3e-09	-0.5%	-5%
COc1ccc(C2CC(c3ccc(F)cc3)Nc3nc(N)nn32)cc1 (stereo not given)
    nt	nt	nt	-1.0%	-1%
CCc1nnc(NC(=O)CN2CCN(c3nc(-c4ccccc4)cs3)CC2)s1
    i	i	1e-09	1.1%	10%
CCOc1cccc(-c2nnc(SCC(=O)Nc3cc(C)ccc3OC)n2N)c1
    i	i	2.2e-08	0.8%	6%
O=C(CCNS(=O)(=O)c1cccc2nsnc12)NCCC1=CCCCC1
    i	i	1e-09	-0.2%	-4%
CCCNc1nc2c(c(=O)n(C)c(=O)n2C)n1CCc1ccccc1
    i	i	2.2e-08	-0.8%	0%
CCC/C=C(\CCC)C(NC(=O)CCc1ccccc1)c1ccc(C(F)(F)F)cc1 (stereo not given)
    nt	nt	nt	-0.9%	?
CN(C(=O)COC(=O)C1CCN(S(=O)(=O)c2cccs2)CC1)C1CCS(=O)(=O)C1 (stereo not given)
    i	i	1.5e-08	-0.9%	-2%
O=C(CCC1CCCC1)NCCCN1CCOCC1
    i	i	3e-08	-1.0%	-6%
O=C1NC(=O)C2(CCc3ccccc32)N1 (stereo not given)
    i	i	9e-09	0.5%	?
Cc1sc2ncn(-n3c(C)ccc3C)c(=O)c2c1C
    i	i	2.5e-08	0.7%	13%
COC(=O)CN(c1ccc2c(c1)OCO2)S(C)(=O)=O
    i	i	3.3e-08	-1.6%	-4%
OC1(c2cccc(F)c2)CCN(Cc2ccncc2)CC1
    i	i	1e-09	1.8%	2%
O=C(O)/C=C\C(=O)Nc1ccc2c(c1)C(=O)c1cc(F)ccc1-2
    i	i	1.9e-09	4.7%[11.5 µM]	-19%[11.4 µM]
CS(=O)(=O)N(CCc1ccccc1)CC(=O)NCc1ccc2c(c1)OCO2
    i	i	1.4e-08	-1.7%	31%
O=C(CSc1nnc(-c2cccs2)n1-c1ccccc1)N1CCOCC1
    i	i	1e-09	-2.4%	2%
COc1ccccc1NCCC(=O)OCC(=O)Nc1ccc(Cl)cn1
    i	i	4.8e-08	-1.0%	2%
O=c1[nH]c(-c2ccncc2)nc2ccccc12
    i	i	1e-09	2.7%	7%
CCN(CC)CC#CC(C)OCOCC#CCOC (stereo not given)
    nt	nt	nt	0.4%	1%[11.4 µM]
CC(=O)NCc1nc2ccccc2n1C(C)C
    nt	nt	nt	-0.3%	-1%
COCCn1c(SCC(=O)c2ccc3c(c2)OCCO3)nnc1-c1ccco1
    i	i	1e-09	0.7%	4%
Cc1ccc(N(Cc2cc3ccccc3[nH]c2=O)C(=O)c2ccco2)c(C)c1
    i	i	2.5e-08	nt	nt
COc1ccc(OC)c(NC(=O)Nc2cccc(Cn3cccn3)c2)c1
    i	i	6.3e-09	-0.1%	-12%
Cc1ccc(C)c(C(=O)n2cnnc2N)c1
    i	i	2.5e-09	-1.0%	2%
C/C(Cl)=C\Cn1c(=O)c2c(nc3n2CCS3)n(C)c1=O
    i	i	2.2e-09	-0.2%	-19%
CCn1nnc(NC(=O)c2ccc(C(C)(C)C)cc2)n1
    i	i	1.1e-08	0.3%	-11%
O=C(O)C1C2C=CC(O2)C1C(=O)NCCCn1ccnc1 (stereo not given)
    i	i	4.1e-08	0.8%	0%
CSc1nsc(SCC(=O)N2CCc3ccccc32)n1
    i	i	4.3e-08	2.6%	?
COc1nc2c(C)cccc2cc1-c1noc(-c2ccco2)n1
    i	i	4e-08	-0.5%	?
Cc1cc(C)c2c(N)c(C(=O)NCc3ccco3)sc2n1
    i	i	4.6e-08	3.2%	-7%
Cc1ccc(C)c(S(=O)(=O)Nc2ccc3scnc3c2)c1
    i	i	4.2e-08	0.7%	2%
CC(=O)N1[C@H](C)C=C[C@]1(Cc1ccccc1)C(=O)O
    nt	nt	nt	-1.1%	0%
O=C(Cn1cnc2c(nnn2Cc2ccccc2F)c1=O)NCc1ccco1
    i	i	1.2e-09	0.8%	3%
Cc1noc(C)c1Cn1nc(C(=O)O)c2ccccc2c1=O
    i	i	1e-09	-1.3%	nt
CC1CCc2c(C(=O)NCCCN3CCOCC3)csc2C1 (stereo not given)
    i	i	1.8e-08	0.3%	1%[11.4 µM]
CC(=O)Nc1ccc(-c2cn3ccsc3n2)cc1
    i	i	2.6e-09	0.4%	5%
O=C(CN1CCCC1)NCC12CC3CC(CC(C3)C1)C2
    i	i	5.4e-09	-0.9%	7%
Cc1cc(C)nc(NC(=O)CSc2nnnn2-c2ccccc2)n1
    i	i	1e-09	-0.5%	7%
COc1ccc(C(OC(=O)c2c(C)noc2C)C(=O)NC2CCCC2)cc1 (stereo not given)
    i	i	3.1e-08	-2.1%	12%
c1ccc(OCc2nnc3sc(-c4cccs4)nn23)cc1
    i	i	2.7e-08	-0.2%	?
Cc1noc(C)c1S(=O)(=O)Nc1ccc(C(=O)N2CCc3ccccc3C2)cc1
    i	i	1e-09	0.6%	-2%
O=C(c1ccccc1)c1nnc(-c2ccccc2F)o1
    i	i	2.4e-08	0.7%	-2%

Going on with the list.
Order of values: A488 fluor	Resorufin autofl	A647 fluor	AID923	TSHR ag
CCN(Cc1cc2cccc(C)c2[nH]c1=O)C(=O)c1ccccc1OC
    i	i	3.7e-09	0.7%	14%
O=C(Nc1cccc(NC(=O)c2cccs2)c1)c1ccco1
    i	i	9.3e-09	-0.4%	-3%
CCn1c(SCC(=O)Nc2ccc(NC(=O)c3ccco3)c(OC)c2)nc2ccccc2c1=O
    i	i	1.9e-08	0.2%	23%
O=c1cc(N2CCN(Cc3ccccc3)CC2)[nH]c(=O)n1-c1cccc(C(F)(F)F)c1
    i	i	3e-09	7.1%	?
COc1cc(C2CC(=O)NC(SCC(=O)Nc3ccccc3C)=C2C#N)ccc1O (stereo not given)
    i	i	6.1e-09	0.5%	8%[11.4 µM]
C[N+](C)(CCCCCC[N+](C)(C)CCCN1C(=O)c2cccc3cccc(c23)C1=O)CCCN1C(=O)c2cccc3cccc(c23)C1=O
    i	i	4.6e-08	-2.4%	-5%
COc1ccc(NC(=O)N(C2CCCCC2)C2CCN(C(C)C)CC2)c(OC)c1
    i	i	1.2e-08	0.3%	?
COCCCN1C(=O)C(O)=C(C(C)=O)C1c1cccc(F)c1 (stereo not given)
    i	i	8.4e-09	-0.4%	-1%
CCOC(=O)c1cc2occc2n1CC(=O)Nc1ccc(OC)cc1OC
    i	i	1.2e-09	-1.7%	27%
Fc1ccccc1OCCSc1nc2ccccc2o1
    i	i	1.7e-08	0.8%	23%
CCOC(=O)N1CCC(n2c(SCC(=O)Nc3ccccc3OC)nc3ccccc3c2=O)CC1
    i	i	4.7e-09	-0.2%	?
COCCn1c(=O)cnc2cnc(OCc3ccccc3)nc21
    i	i	5.2e-09	1.7%	-4%
O=C(CCCN1C(=O)c2ccccc2C1=O)NCc1cccnc1
    i	i	5.3e-08	-0.5%	6%
[Cu].[O-]/N=C1/C(=[OH+])Nc2ccccc21.[O-]Nc1c(O)[nH]c2ccccc12
    i	i	1e-09	-1.7%[11.5 µM]	-3%[11.4 µM]
CCC1Oc2ccccc2N(CC(=O)Nc2ccc3c(c2)OCCO3)C1=O (stereo not given)
    i	i	1e-09	-2.0%	-2%

Reprinted at random: 4 records from the list
Order of values: A488 fluor	Resorufin autofl	A647 fluor	AID923	TSHR ag
O=C(CSc1nnc(-c2cccs2)n1-c1ccccc1)N1CCOCC1
    i	i	1e-09	-2.4%	2%
COC(=O)COc1ccc(S(=O)(=O)N2CCOCC2)cc1C
    i	i	6.2e-09	-4.5%	-3%
CCn1c(SCC(=O)Nc2ccc(NC(=O)c3ccco3)c(OC)c2)nc2ccccc2c1=O
    i	i	1.9e-08	0.2%	23%
Cc1ccc(C)c(C(=O)n2cnnc2N)c1
    i	i	2.5e-09	-1.0%	2%

Carrying on:
Order of values: A488 fluor	Resorufin autofl	A647 fluor	AID923	TSHR ag
CCOc1ccc(-n2c(SCC(N)=O)nc3c([nH]c4ccccc43)c2=O)cc1
    nt	nt	nt	-1.3%	4%
COc1ccc2c(c1)CCc1c(C(=O)NCc3cccnc3)noc1-2
    i	i	3.8e-08	-0.5%	nt
NC(=O)NC(=O)Nc1ccccc1Cl
    i	i	2.8e-08	-0.3%	1%
CC1(C)CC(=O)C(C#N)=C(NCCCO)C1
    nt	nt	nt	-0.2%	-1%
N#Cc1nc(-c2cccs2)oc1NCC1CCCO1 (stereo not given)
    i	i	5.2e-08	-1.1%	2%
CN(C)c1ccc(C2C3=C(CCCC3=O)OC3=C2C(=O)CCC3)cc1
    i	i	2.9e-08	4.7%	7%
CCOC(=O)CSc1nnc(-c2ccco2)n1C
    i	i	1e-09	0.5%	4%
O=C(O)C1CC=CCC1C(=O)NCCc1ccccc1 (stereo not given)
    nt	nt	nt	-0.7%	2%
CCOC(=O)CCNC(=O)Nc1ccc2nc(C)n(Cc3ccccc3Cl)c(=O)c2c1
    i	i	1e-09	2.0%	4%
Cn1ncc(Cl)c1C(=O)N1CCc2ccccc21
    i	i	5.7e-09	2.8%	5%

Some of the compounds tested. The share of hits here may be higher or lower than overall.
